Bioassay records (PubChem BioAssay)
Tg IFNy HTS: T. gondii growth inhibition with IFN-gamma, primary screen, cell-based; actives 3.8% (n = 69,000); Toxoplasma gondii growth in IFN-gamma-treated host cells; stronger effect = lower value; reference of the scale not given here; activity change, negative = inhibition, %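 (about 20 µM by stock and volumes)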;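 active means below -70%; inconclusive means fit judged invalid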;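 further: host cells are HeLa cells infected with Toxoplasma gondii; parasite growth read as luciferase light; one replicate is shown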
Numbers without * were called inactive; i = inactive; ? = inconclusive; & = joins results of further samples.

SMILES	Tg IFNy HTS
CCOc1ccc(CCNS(=O)(=O)c2cc3c4c(c2)CCN4C(=O)CC3)cc1OCC	40
COc1ccc(CN(CC(C)C)C(=O)c2ccoc2)cc1	1
O=S(=O)(c1ccc(F)cc1)N1C[C@@H]2N[C@H](C1)C2c1ccc(/C=C/c2ccccc2)cc1 (stereo partly specified)	-43&-55
Cc1ccc2c(CN3CCN(Cc4ccc5c(c4)OCO5)CC3)cc(=O)oc2c1C	4
C[C@@]1(O)CCN(C(=O)CN2C(=O)CNC2=O)C[C@@H]1Cc1ccccc1	-46
Cc1cnc(N2C[C@@H]3OCC(=O)N(CC4CC4)[C@H]3C2)nc1	-50
CC1(C(=O)NCc2ccc(F)cc2F)CCN(C(=O)Cc2cccs2)CC1	35
CCc1nc2ccccc2n1CCC(=O)N1CCC(CO)(Cc2cccc(C(F)(F)F)c2)CC1	-20
CCOc1ccccc1CN(CC)C(=O)c1occc1C	1
CCC1CN(Cc2c(C)cc(O)cc2C)CCN1C(C)C (stereo unspecified)	2

A different layout for part of the listing above.
CC1(C(=O)NCc2ccc(F)cc2F)CCN(C(=O)Cc2cccs2)CC1
  Tg IFNy HTS: 35
CCOc1ccc(CCNS(=O)(=O)c2cc3c4c(c2)CCN4C(=O)CC3)cc1OCC
  Tg IFNy HTS: 40
CCc1nc2ccccc2n1CCC(=O)N1CCC(CO)(Cc2cccc(C(F)(F)F)c2)CC1
  Tg IFNy HTS: -20
O=S(=O)(c1ccc(F)cc1)N1C[C@@H]2N[C@H](C1)C2c1ccc(/C=C/c2ccccc2)cc1 (stereo partly specified)
  Tg IFNy HTS: -43&-55

(list continues)
SMILES	Tg IFNy HTS
O=C(NCCc1ccccc1)N1CCCCC1CCn1cccn1 (stereo unspecified)	9
S=C1NC2=C(C(c3ccc(Cl)cc3Cl)N1)N1CCC2CC1 (stereo unspecified)	38
O=C1c2ccccc2C(=O)N1CCSC(=S)N1CCOCC1	-58
COc1cccc(OC)c1C(=O)NCCc1csc(-c2cccc(F)c2)n1	38
CN1CCN(C(=O)[C@H]2[C@H](CO)[C@H]3Cn4c(ccc(-c5ccncc5)c4=O)[C@H]3N2CC2CC2)CC1	-1
O=C(c1cscn1)N1CCc2ccc(=O)[nH]c2CC1	16
COCCN1C2(CCN(S(=O)(=O)C3CC3)C2)c2ccccc2S1(=O)=O (stereo unspecified)	74
O=C(c1cccs1)n1ccc(-c2nc3ccccc3s2)n1	248
CSc1ccc(Cl)c(C(=O)Nc2ccc3c(c2)CCC(=O)N3C)c1	26
CC(C)C(NS(=O)(=O)c1ccc(-c2ccc(Br)cc2)cc1)C(=O)O (stereo unspecified)	11

Arranged by length of the SMILES (smallest number first): five of the compounds above.
SMILES	Tg IFNy HTS
O=C(c1cccs1)n1ccc(-c2nc3ccccc3s2)n1	248
S=C1NC2=C(C(c3ccc(Cl)cc3Cl)N1)N1CCC2CC1 (stereo unspecified)	38
COc1cccc(OC)c1C(=O)NCCc1csc(-c2cccc(F)c2)n1	38
COCCN1C2(CCN(S(=O)(=O)C3CC3)C2)c2ccccc2S1(=O)=O (stereo unspecified)	74
CN1CCN(C(=O)[C@H]2[C@H](CO)[C@H]3Cn4c(ccc(-c5ccncc5)c4=O)[C@H]3N2CC2CC2)CC1	-1

Further records.
SMILES	Tg IFNy HTS
COc1ccc(C(c2ccccc2)N2CCN(C(=O)CCC3CCCO3)CC2)cc1 (stereo unspecified)	12
Cc1ccc(S(=O)(=O)CC(=O)Nc2cc(Cl)ccc2N2CCOCC2)cc1	10
COc1cc(-c2nnc(-c3cccs3)o2)cc(OC)c1OC	24
COc1ccc(Cc2noc(CN(C)CCN3CCc4ccccc4C3)n2)cc1OC	11
Cc1ccc2c(c1)c(CNC(=O)c1cc(COc3ccccc3)[nH]n1)nn2C	-23
Cc1ncsc1C(=O)N1C[C@H]2OC(=O)N(CCCN3CCOCC3)[C@H]2C1	-47
CC(C)(C)c1csc(-c2ccc(Cc3cc(-c4ccc(F)cc4)n[nH]c3=O)cc2)n1	20
CCOC(=O)c1[nH]c(C)c(CN2CC3CCCN3C[C@@H]2C)c1C (stereo partly specified)	-18
Cc1ccc(CN2C[C@@H](C(=O)N(C)C)C[C@@H]3OCC[C@@H]32)o1	-2
COc1cccc(CC(=O)N2CCC3(CC2)NC(=O)c2ccc(F)cc2N3C)c1	19
COc1ccccc1-c1ccc([C@@H]2[C@H]3CN(C(=O)c4cccnc4)CCCCN3[C@H]2CO)cc1	-24
Cc1ccc(C2=NC3(CCN(CC(=O)Nc4c(C)cccc4C)CC3)NC2=O)cc1C	-10
CN(Cc1noc(C2CCCC2)n1)C(=O)c1ccc(C#CC(C)(C)O)o1	20
CN1CCNC(=O)C1CC(=O)NCCc1nccc(-c2ccccc2)n1 (stereo unspecified)	-6
CN1C[C@@H]2CC[C@H](CC1=O)N2C(=O)Cc1ccc(S(C)(=O)=O)cc1	1
CCc1ocnc1C(=O)N1C[C@H]2CC=CC[C@H]2C1	-2
O=C(NC1CC1)N1CCC2(CCC(=O)N2Cc2ccccc2)CC1	51
CC(C)n1c2ccccc2c2c1cc(C(=O)N1CCCCO1)n2C(=O)N(C)C	8
O=C(Nc1nccs1)c1cccc(CN2CCCC2c2ccccn2)c1 (stereo unspecified)	7
O=C(NCCc1csc(-c2ccccc2)n1)[C@H]1CCCN1C(=O)c1ccccc1	-2
c1ccc(-n2cncn2)c(Cn2cnnc2)c1	-29
O=C(NC(NC1CCCCC1)(C(F)(F)F)C(F)(F)F)c1ccccc1	-35
Cc1ccccc1N1CC2(CCN(C(=O)Cc3ccc(F)cc3)C2)CC1=O (stereo unspecified)	-4
COc1ccc(C(=O)c2oc3ccc(Br)cc3c2NC(C)=O)cc1	0
CCc1cnc(N2CCc3cc(C(=O)N4CCCC4)c(N(C)C)nc3CC2)nc1	5
COc1ccccc1CNC(=O)C[C@@H]1C=C[C@@H](NC(=O)CC2CC2)[C@@H](CO)O1	-32
CO[C@@H](CN(C)C(=O)c1ccccc1F)[C@H](C)CN([C@H](C)CO)S(=O)(=O)c1ccc(F)cc1	49
Cc1nnsc1C(=O)N1CCCC(c2n[nH]c(=O)n2-c2ccccc2)C1 (stereo unspecified)	-17
C[C@H]1CN([C@@H](C)CO)S(=O)(=O)c2ccc(-c3cncnc3)cc2O[C@@H]1CN(C)C(=O)NC1CCCC1	81
CCCc1cc(N2CC(c3ccccn3)C2)nc(C)n1	1
CC(C)NC(=O)Nc1ccc2c(c1)C(=O)N(C)[C@@H]1CC[C@@H](CC(=O)NCc3ccc(F)cc3)O[C@@H]1CO2	-13
CCOC(=O)c1nn(Cc2ccccc2)c2c1CN(C(=O)CN1CC(c3ccccc3)CC1=O)CC2 (stereo unspecified)	-51
Cc1cccc(-c2noc(CN(C)C(=O)c3cc4n(n3)CCCN(C)C4)n2)c1	126
O=C(c1ccccc1Cl)N1CCCC2(C1)Nc1cccnc1NC2=NC1CCCC1 (stereo unspecified)	13
O=C1c2ccccc2C(=O)C1c1ccc(Cl)cc1	9&3
COc1ccc(Nc2nc(N)nc(CSc3n[nH]c(-c4ccccc4)n3)n2)cc1	-35
Fc1cnc(N2CCC3(C2)CN(c2nncs2)CCC3(F)F)nc1 (stereo unspecified)	8
CN1C[C@H](NC(=O)C2(S(=O)(=O)c3ccccc3)CC2)C[C@H]1CO	-3
CC(=O)c1cc([N+](=O)[O-])c(Sc2ccc(F)cc2F)s1	-72*
CCCS(=O)(=O)N1Cc2ccccc2C2(CCN(C(C)C)CC2)C1	-11
CCc1nc([C@H]2CN(C)C[C@@H]2C(=O)N2CCNC(=O)CC2)c(C)[nH]1	9
CN(C)C(c1ccccc1)c1ccccc1	-12
COc1ccc(CCNC(=O)CN2CCN(C(N)=O)CC2)cc1	-1
O=C(O)c1cccnc1CN1CCN(c2cccc(Cl)c2Cl)CC1	6
COc1ccc(Br)cc1-c1nc(Cn2nnc(C(=O)Nc3ccc(F)c(F)c3)c2C)c(C)o1	8
COc1ccc(CNC2=NCCNC23CCN(S(=O)(=O)c2ccc(Cl)s2)CC3)cc1	-47
CCN1CCN(Cc2ccnc(N3CCOCC3)n2)CC1	3
CO[C@@H]1CC[C@H]2CCN(C)C(=O)CCCN(C)C(=O)c3cc(C#N)ccc3OC[C@@H]1O2	-52
Cc1cc(C2CCCN2Cc2cn(C(C)C)c3ccccc23)on1 (stereo unspecified)	0
COCCN1C(=O)CCc2cc(NS(=O)(=O)c3ccc4c(c3)CCC4)ccc21	-63

(next part)
SMILES	Tg IFNy HTS
CC(C)c1cc(C(=O)N2CCOC(CCc3ccccc3)C2)no1 (stereo unspecified)	-52
COc1ccc(NC(=O)N2CCN(CC(C)C)C(=O)C2C)cc1Cl (stereo unspecified)	-4
CS(=O)(=O)NC1CCN(C2CCC3(CCNCC3)CC2)CC1	46
CCOC(=O)c1cc2c(c(CSc3ccc(Cl)cc3)c1)OCOC2	?
C[C@H](CO)N1C[C@H](C)[C@@H](CN(C)Cc2ccc3c(c2)OCO3)Oc2cc(Br)ccc2S1(=O)=O	-3
CCOC(=O)CNC(=O)[C@@H]1CCCN1C(=O)Cc1ccccc1	38
Cc1ccc(S(=O)(=O)N2CCC3(CCC(C(=O)N(C)C)O3)CC2)cc1 (stereo unspecified)	-59
Cn1ccnc1-c1ccc(NCC2COc3ccccc3O2)nn1 (stereo unspecified)	i
CO[C@H]1CCN(C(=O)Cc2ccsc2)[C@H]1Cc1ccncc1	-40
O=C(C[C@@H]1CC[C@@H]2[C@H](COC[C@H](O)CN2C(=O)c2ccc3c(c2)OCO3)O1)NC1CCC1	-49
Cc1oc(-c2ccc(NC(=O)c3ccc(Br)cc3)cc2)nc1Cn1cccn1	-53
COCC1CN(C(=O)c2ccc(C)cc2)Cc2cnn(CC3CC3)c21 (stereo unspecified)	-7
CCc1csc(CNC(=O)C2CC(=O)N(CC(C)C)C2)n1 (stereo unspecified)	1
CC1=NN(c2ccccc2)C(=O)C1CCC(=O)O (stereo unspecified)	-6
O=C(COc1ccc(S(=O)(=O)Nc2ccc(F)cc2)cc1Cl)NCc1ccco1	-4
CC(C)N(C)CC1CN(CC2CC2)Cc2nccn2C1 (stereo unspecified)	44
CC(C)c1ccc(NC(=O)c2c(O)c3ccccc3n(-c3ccccc3)c2=O)cc1	-37
CC(C)NC(=O)N1CCC2(c3ccccc3)CN(Cc3cccnc3)CC2C1 (stereo unspecified)	-9
COc1ccc(CNC(=O)Cn2ncc3c(N4CCCCCC4)ncnc32)cc1	6
CCn1ncc(CN2CCN(C(c3ccccc3)c3ccccc3)CC2)c1C	-18
Nc1nc(N)nc(-c2ccc(Oc3ccccc3N)cc2)n1	-31
C[C@H](CO)N1C[C@H](C)[C@@H](CN(C)Cc2ccncc2)Oc2c(cccc2N(C)C)C1=O	17
Cc1ccc(-c2oc3ccccc3c(=O)c2OCC(=O)NCc2ccco2)cc1	-6
CCn1c(=O)c(-c2nc(-c3ccccc3Cl)no2)c(O)c2ccccc21	-2
Cc1cc(C)cc(CCC(=O)N2C[C@H]3CC=CC[C@H]3C2)c1	-15
Cc1noc(C)c1C(=O)c1c(C)[nH]n(-c2ccccc2)c1=O	77
CNC[C@@H]1OCCCC[C@@H](C)Oc2ccc(NC(=O)Nc3ccc(OC)cc3)cc2C(=O)N([C@H](C)CO)C[C@@H]1C	212
O=C(c1cccnc1)N1CCC2(CCN(CC3CCOCC3)CC2)C1	-12
Cc1cc(N2CCOCC2)ccc1Nc1nc(NC2CCCCC2)c2[nH]cnc2n1	-58
O=C(NCCc1c[nH]c2ccccc12)C1CCN(c2ncnc3c2oc2ccccc23)CC1	-50
O=C1c2cccnc2CN1C1COC2(CCCC2)C1 (stereo unspecified)	9
CC(C)Sc1n[nH]c(=O)n1C(C)C	-29
Clc1ccc(COc2nonc2-c2ccccc2)c(Cl)c1	4
COc1cccc(Cn2c(-c3ccc(Cl)cc3)noc2=O)c1	68
O=C(C[C@@H]1CC[C@@H]2[C@H](COC[C@H](O)CN2Cc2ccc(F)cc2)O1)NCCc1ccccc1	-1
COc1cccc(-c2c3c([nH]c(=O)c2C#N)CCc2cc(OC)ccc2-3)c1	77
Cc1c(CN(C)C(=O)C2CCOC2)[nH]c2ccccc12 (stereo unspecified)	3
Cc1cccc(S(=O)(=O)N2Cc3ccccc3C3(CCN(C)CC3)C2)c1	-26
O=C1NCC2(CCCN(c3nc4ccccc4o3)CC2)O1 (stereo unspecified)	10
C[C@H](CO)N1C[C@H](C)[C@H](CN(C)C(=O)c2ccncc2)OCCCC[C@H](C)Oc2ccc(NS(=O)(=O)c3cccs3)cc2C1=O	-47
CCC(C(=O)Nc1ccc(NC(=O)c2ccc(C)o2)cc1)n1cccn1 (stereo unspecified)	4
CN1C(=O)c2cc(NS(C)(=O)=O)ccc2OC[C@H]2O[C@H](CC(=O)N3CCOCC3)CC[C@@H]21	15
N#C[C@@H]1[C@@H](c2ccccc2-c2cccc(F)c2)[C@H](CO)N1C(=O)C1CC1	5
c1ccc2c(c1)CCN(C1CCN(Cc3cc4n(n3)CCNC4)CC1)C2	5
CCCn1cc(CCNC(=O)c2cc3ccccc3[nH]2)c2cccnc21	-83*
COc1ccc(C2CC(c3ccc([N+](=O)[O-])cc3)=NN2C(=O)c2ccccc2)cc1OC (stereo unspecified)	-8
COc1ccccc1C#Cc1ccc([C@@H]2[C@@H](C#N)N(C(=O)C3CCC3)[C@H]2CO)cc1	-32
Cc1ccc2c(c1C)-n1cccc1C1(CCN(S(=O)(=O)c3ccc(C4CCCCC4)cc3)CC1)N2	30
O=C(c1ccc[nH]1)N1CCCn2nnc(COCC3CC3)c2C1	-37
O=C(CN1C(=O)CCc2cc(S(=O)(=O)N3CCCC3)ccc21)NCc1ccccc1	-2
Cc1nc(-c2ccccc2)sc1CCNC(=O)C(=O)Nc1cccc(Cl)c1	165
COCCn1cnc(-c2cc(C(=O)Cc3cccnc3)c3ccccn23)c1	-13

A portion of the library, so the mix of outcomes need not match the whole.
